High-throughput results from PubChem.
ClpP mod: qHTS Assay for Activators of ClpP; ATP-dependent Clp protease proteolytic subunit (Bacillus subtilis (strain 168)), P80244; purified B. subtilis ClpP, FRET peptide cleavage, 20 min; Potency, µM (titrated, usually from 57.5 µM), for inactives: at the top dose activity change, negative = active; 340,000 tested, 1.9% active; AID 651965, 2013; active = well fitted falling curve with a large enough effect; inconclusive = small, poorly fitted or top-dose-only effect; inactive = no such curve, though single readings can be large or run the other way; note: potency is the fitted concentration of half-maximal effect; the source files actives as falling curves though it sought activators and does not explain the sign; nearly all actives have a fitted effect of over 65% in size; many hits overshoot -100%
Target sequence (P80244 whole entry, looked up): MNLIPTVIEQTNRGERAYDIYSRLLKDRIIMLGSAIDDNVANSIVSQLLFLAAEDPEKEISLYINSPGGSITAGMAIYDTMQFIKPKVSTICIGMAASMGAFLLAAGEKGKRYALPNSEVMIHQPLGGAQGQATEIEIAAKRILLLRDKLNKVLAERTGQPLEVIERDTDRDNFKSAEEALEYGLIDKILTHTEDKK
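FRET quenching reversal measured ClpP activation: 10 microg/mL B. subtilis ClpP at pH 8 with the FRET-FV decapeptide, read at 430 nm after 320 nm excitation. The 20-min minus 0-min signal was scaled between DMSO/no-enzyme wells and ADEP (5.8 microM final).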
Menin-MLL FL inh: displaces fluorescein MLL peptide from human menin; 290,000 tested, under 10 active; Fluorescence polarization, fluorescein-MLL peptide displacement from menin; AID 1766; FP activity change, % at 61.4 µM; inconclusive = falling polarisation curve, or a change in total fluorescence; inactive = total fluorescence flat and polarisation flat or rising; no compound was filed as active; the % refers to the polarisation; negative = inhibition;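 note: % of control where 0% means no effect; inhibitors lower the polarisation; unlabelled MLL peptide was the positive control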
Sfp PPTase inh: inhibitors of Bacillus subtilis Sfp phosphopantetheinyl transferase. Q9F4F7. Biochemical Sfp PPTase activity, qHTS. Potency, µM, for inactives: max response, negative = inhibition, most hits filed as inhibitors. 310,000 tested, 3.5% active; active = well fitted inhibition curve with a large enough effect; inconclusive = small, poorly fitted or top-dose-only effect, or another doubt; inactive = no such curve, though single readings can be large or run the other way;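 note: the enzyme is Sfp with the accession as filed and its product quenches rhodamine fluorescence; potency is the fitted concentration of half-maximal effect; 0% = enzyme reaction without inhibitor and -100% = no enzyme wells; top concentration of the series not given in the record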
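Fluorescence-quenching assay with 15 nM Sfp, 5 uM rhodamine-CoA and 12.5 uM BHQ-2-labelled ybbR peptide in pH 7.6 Hepes/MgCl2 buffer. Enzyme was pre-incubated with compound for 15 min at room temperature. Rate was taken from the 30-min fluorescence change (525/598 nm).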
gsp ag: activates gsp, the McCune-Albright syndrome mutation. gsp mutant cells, cAMP HTRF, 30 min; control for the full effect not named in the record. Potency, µM (doses to about 76.9 µM), without a hit: top-dose activation (cAMP increase), most hits filed as activators. 340,000 tested, 0.13% active. AID 624287; active = well fitted activation curve with a large enough effect; inconclusive = small, poorly fitted or top-dose-only effect, or another doubt; inactive = no such curve, though single readings can be large or run the other way; cell line not stated here;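 note: phosphodiesterase inhibitor Ro 20-1724 added with compounds to block cAMP breakdown; potency is the fitted concentration of half-maximal effect; nearly all actives have a fitted effect of over 60% in size; about a fifth of the inactives were tested at one dose only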
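Cells stably selected in G418 were plated at 2000/well, grown 16-24 hr, then given compounds in DMSO with the PDE inhibitor […] (300 uM solution added) for 30 min at 37C; cAMP was read by HTRF.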
gsp antag: gsp mutant antagonism. Potency, µM (highest dose often 76.9 µM), without a hit: top-dose activity change, negative = inhibition, actives largely listed as inhibitors. 340,000 tested, 0.4% active. gsp-mutant cells, cAMP HTRF, 30 min; control for the full effect not named in the record; active = falling curve of any shape with a large fitted effect; inconclusive = falling curve, mostly with a smaller effect; inactive = flat or rising curve; cell line not stated here;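 note: intracellular cAMP measured with PDE inhibitor Ro 20-1724 present during compound exposure; potency is the fitted concentration of half-maximal effect; % is set by controls: 0 for no effect and ±100 for the full control effect; nearly all actives have a fitted effect of over 65% in size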
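Measurement of cellular cAMP by homogeneous time-resolved fluorescence following a 30 min compound exposure at 37C. The PDE inhibitor […] was present throughout; the assay buffer was DPBS with 0.05% BSA and 0.005% Tween 20.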
TRPV1 PAM: human TRPV1 potentiation. potentiation, % at 8.33 µM. TRPV1-expressing cells, Fluo-8 calcium influx, capsaicin EC20 potentiation; host cell line not named in the record; control for the full effect not named in the record. AID 540277. 320,000 tested, 0.02% active. Q8NER1; active means potentiation above 80%; inconclusive means 30% to 80%; inactive means below 30%; note: 0% is about no effect
Target sequence (Q8NER1 whole entry, looked up): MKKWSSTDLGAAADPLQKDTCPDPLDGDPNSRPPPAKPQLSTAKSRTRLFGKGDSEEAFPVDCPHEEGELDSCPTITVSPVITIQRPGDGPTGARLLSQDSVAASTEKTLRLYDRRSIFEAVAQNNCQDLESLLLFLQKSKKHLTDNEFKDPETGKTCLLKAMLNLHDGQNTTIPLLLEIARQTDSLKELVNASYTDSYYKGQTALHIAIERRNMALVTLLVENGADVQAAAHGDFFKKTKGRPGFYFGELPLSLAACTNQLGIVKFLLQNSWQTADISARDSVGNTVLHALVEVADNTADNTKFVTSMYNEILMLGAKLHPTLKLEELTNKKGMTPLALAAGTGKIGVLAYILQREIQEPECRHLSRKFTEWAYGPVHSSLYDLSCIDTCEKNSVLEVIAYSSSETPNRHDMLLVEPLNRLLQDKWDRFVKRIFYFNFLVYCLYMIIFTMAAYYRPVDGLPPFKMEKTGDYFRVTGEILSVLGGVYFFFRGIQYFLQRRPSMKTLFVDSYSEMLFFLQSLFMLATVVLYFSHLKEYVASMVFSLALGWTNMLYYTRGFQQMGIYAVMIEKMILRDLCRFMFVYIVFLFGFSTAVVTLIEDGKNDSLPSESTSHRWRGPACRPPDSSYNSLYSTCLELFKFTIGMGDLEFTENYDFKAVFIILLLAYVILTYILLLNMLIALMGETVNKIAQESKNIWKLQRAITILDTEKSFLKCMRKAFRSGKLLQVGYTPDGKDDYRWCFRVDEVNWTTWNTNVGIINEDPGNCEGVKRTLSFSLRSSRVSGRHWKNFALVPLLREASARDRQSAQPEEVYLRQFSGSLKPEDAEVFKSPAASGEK
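Cells expressing TRPV1 were dye-loaded with Fluo-8 and read kinetically: 10 s baseline, 3 min after compound (agonist portion), then 2 min after EC20 capsaicin (allosteric enhancer portion). Calcium-bound dye fluorescence at 480/520 nm.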
CtBP-E1A blk: blocks the CtBP interaction with E1A; AlphaScreen GST-E1A/His-CtBP binding, 1536-well; hits give low values; control for the full effect not named in the record; activity change, % (test concentration not listed); 340,000 tested, 0.49% active; AID 651724; in the data active means activity change below about -65%; inconclusive means about -30% to -65%; inactive means above about -30%; note: % is set by controls: 0 for no effect and ±100 for the full control effect; compound concentration not given in the record
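AlphaScreen with 125 nM GST-E1A and 125 nM His-CtBP (5X stocks) in Tris pH 8.0, 300 mM NaCl, BSA, Tween 20, TCEP. Compounds preincubated 2 h at 37 deg C, then glutathione donor/nickel acceptor beads added for 1 h at 37 deg C in dark.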
* = called active by the depositor; ? = inconclusive; . = no result given; [ ] = dose if it differs, or a comment.

SMILES	CtBP-E1A blk	Sfp PPTase inh	TRPV1 PAM	Menin-MLL FL inh	ClpP mod	gsp ag	gsp antag
COc1cc(CN2CCN(CCCc3ccccc3)C(CCO)C2)cc(OC)c1O (centres undefined)	4	-5%	?	-5.7	2.5%	-5%	3%
O=C1NC(Cc2ccccc2)c2nc3ccccc3c(=O)n2-c2ncccc21 (centres undefined)	3	.	.	.	-1.0%	?	.
Cc1ccnc(N2CCC(C(=O)Nc3cccc(C(F)(F)F)c3)CC2)n1	-1	-18%	0	7.6	-27%	2%	-8%
O=C(OCC(=O)N1CCN(C(=O)c2ccco2)CC1)c1cc(-c2ccccc2)nc2ccccc12	-5	-24%	-8	-6.3	?	-7%	-1%
CS(=O)(=O)c1ccc(C(=O)NNC(=O)c2cccs2)cc1	-2	.	.	.	0.4%	23%	11%
CC/C(=N\NS(C)(=O)=O)c1ccccc1	8	12%	5	-0.7	-0.5%	2%	1%
COc1ccc(C(CNC(=O)c2ccco2)N2CCOCC2)cc1 (centres undefined)	-9	.	-26	.	-0.6%	8%	7%
COC(=O)c1cc(OC)c(OC)cc1NC(=O)CSCc1c(C)noc1C	.	.	.	.	4.4%	2%	-7%
COc1ccc([N+](=O)[O-])cc1NC(=O)COC(=O)Cn1cnc2ccccc2c1=O	.	.	.	.	1.6%	?	-21%
COc1cccc(/C=N/NC(=O)CCc2c(C)n[nH]c2C)c1	-1	-12%	5	7.2	-2.8%	17%	6%
COCCN(C(=O)c1csnn1)C(C(=O)NC1CCCCC1)c1ccccc1 (centres undefined)	-2	8%	7	0.2	.	29%	8%
CCCCN1CC(COCc2ccccc2)Oc2cccc(Oc3ccc(OC)cc3)c2S1(=O)=O (centres undefined)	-22	.	.	.	-4.4%	.	6%
O=C(c1ccccc1)c1cnc2ccc(Cl)cc2c1N1CCOCC1	4	8%	4	1.5	-0.2%	-20%	-6%
Cc1ccc(C(=O)Nc2ccccc2)cc1S(=O)(=O)Nc1ccc(Cl)cn1	-9	1%	10	0.2	.	-4%[15.4 µM]	-10%
Cc1ccc(NC(=O)c2ccc([N+](=O)[O-])cc2)cc1S(=O)(=O)N(C)C	-19	-1%	-19	-2.3	.	6%	1%
Cc1ccc(-n2ncc(C(=O)N3CCN(C(=O)c4ccco4)CC3)c2-n2cccc2)cc1	8	10%	-8	.	-3.3%	-13%	-6%
CCN1CCN(C(=O)C2CCN(S(=O)(=O)c3cc(Cl)ccc3Cl)CC2)CC1	-3	8%	-9	-1.4	.	-3%[15.4 µM]	26%
COC(C)(C)[C@@H](O)COc1c2ccoc2cc2oc(=O)ccc12	5	.	?	.	-4.0%	.	-5%
COc1ccc([C@@]23Oc4cc(OC)cc(OC)c4[C@]2(O)[C@H](O)[C@H](C(=O)N(C)C)[C@H]3c2ccccc2)cc1	6	.	.	.	-2.0%	21%	1%
Cc1ccc(NC(=O)c2cc(S(=O)(=O)NCCC3=CCCCC3)ccc2F)cc1	21	21%	-4	0.9	-3.2%	-12%	-9%
Cc1ccccc1-c1nc(CS(=O)CC(=O)NC(C)CCc2ccccc2)c(C)o1 (centres undefined)	-19	-13%	14	.	-1.1%	39%	-20%
Cc1nc(NS(=O)(=O)c2ccccc2)sc1NC(=O)OC(C)C	7	50µM*	-6	0.2	0.5%	8%	-15%
O=C(NCc1ccccn1)c1cccc(S(=O)(=O)N2CCc3ccccc32)c1	22	.	.	.	0.9%	12%	2%
COc1ccc2c(c1)CCC1=C2NC(=S)NC1c1ccc(N(C)C)cc1 (centres undefined)	0	-1%	11	0.1	.	-7%[15.4 µM]	-25%
CCc1nnc(NC(=O)CCN2C(=O)/C(=C/c3cc(OC)c(OC)c(OC)c3)SC2=S)s1	-1	-5%	-7	?	.	-32%[inhibitor]	1%
O=C(N/N=C/c1ccccn1)c1ccc(NC(=O)c2cccc([N+](=O)[O-])c2)cc1	.	7%	-6	2.5	.	-37%[15.4 µM]	-20%
CC1CCN(CCCNC(=O)C2CCC(=O)N2C2CCCC2)CC1 (centres undefined)	5	-4%	9	-2.5	0.5%	-38%[inhibitor]	16%
Cc1c(NC(=O)CSc2nnc3c4ccccc4n(CCc4ccccc4)c3n2)c(=O)n(-c2ccccc2)n1C	-1	13%	8	0.2	-1.4%	16%	-15%
COC(=O)CSc1nc(SC)nc2c1sc1nc(-c3ccco3)c3c(c12)CC(C)(C)OC3	-2	.	.	.	.	0%[15.4 µM]	3%
C=CCOc1ccc(Cl)cc1CNC1CCCC1	-1	23%	-5	-2.6	1.1%	-39%[inhibitor]	6%
Cc1sc2ncnc(SCC(=O)NC3CCS(=O)(=O)C3)c2c1C (centres undefined)	1	.	.	.	-7.5%	?	.
O=C(O)c1[nH]c2ccc(Cl)cc2c1CC(=O)N1CCN(C(=O)c2ccco2)CC1	-17	-10%	-3	14	-20%	-2%	6%
COc1cc([N+](=O)[O-])cc(/C=N/NC(=O)Cn2nccc2C)c1O	-94*	15%	5	5.2	0.4%	5%	-5%
CC(C)CC(=O)Nc1nc2c(c(=O)[nH]1)CCCC2	-1	-7%	-1	-0.5	-0.1%	-31%[inhibitor]	1%
CNC(=O)c1cc(C(=O)c2ccccc2Br)c[nH]1	-21	8%	-3	-3.4	.	-23%	3%
COc1ccccc1C(=O)NNC1CC(=O)N(c2ccc3c(c2)OCCO3)C1=O (centres undefined)	-6	11%	3	1.8	-1.2%	-24%	3%
O=C(CSc1nnc(-c2ccc(O)cc2)o1)N1CCOCC1	6	-11%	-1	-3.8	-1.4%	-7%	2%
COc1ccccc1S(=O)(=O)Cc1ccc(C(=O)NCc2ccc3c(c2)OCO3)o1	9	5%	14	-7.7	1.7%	-34%[inhibitor]	-3%
COC(=O)c1nnn(CC(=O)Nc2cccc(OC)c2)c1C(=O)OC	4	-5%	-8	-3.9	0.9%	28%	6%
COc1cc(C(=O)N2CC(=O)Nc3ccccc32)cc(OC)c1OC	1	.	.	.	0.8%	-26%	.
CC(=O)N1CCN(C(=O)C2(NC(=O)Nc3ccc(C)cc3)CCCCC2)CC1	3	14%	3	-4.1	.	7%	10%
Cc1cc(C(F)(F)F)n2ncc(-c3ccc(F)cc3)c2n1	2	8%	-14	-0.3	-1.0%	-18%	-1%
CCOC(=O)N1CCC(c2cc(=O)n3[nH]cc(C(=O)OC)c3n2)CC1	-2	12%	19	3.0	-16%	-15%	-9%
CCOC(=O)N1CCN(C(=O)C2CCN(S(=O)(=O)N(CC)CC)CC2)CC1	8	6%	6	-0.1	-0.1%	2%	-2%
COC(=O)CCC(=O)N1CCCC(N2CCN(c3ccc(OC)cc3)CC2)C1 (centres undefined)	5	-4%	1	6.9	.	-7%	0%
CCNS(=O)(=O)c1ccc(NC(=O)c2ccccc2)cc1	46	16%	-16	0.8	0.6%	10%	10%
CC(=O)[C@@H]1[C@@H](C(=O)c2ccccc2)[C@]2(C(=O)Nc3ccccc32)[C@H]2C=Cc3cc(F)ccc3N12	-13	-19%	1	2.9	-3.7%	24%	0%
COc1ccc(NC(=O)c2cc3cc(OC)ccc3oc2=N)cc1	-8	-1%	-7	5.1	28%	22%	-1%
CC[n+]1c(/C=C2/C=C(C)CC(C)(C)C2)sc2ccc(OC)cc21	-5	14µM*	-25	?	-1.2%	-7%	-5%
Cc1cc2oc(C(=O)Nc3ccc(S(N)(=O)=O)cc3)c(C)c2cc1Cl	4	6%	-7	0.9	.	-33%[inhibitor]	-10%
Cc1ccc2oc(-c3cccc(N)c3)nc2c1	-14	0%	6	4.5	.	-2%[15.4 µM]	.
CCOC(=O)c1nnn(-c2nonc2N)c1-c1ccc(F)cc1	.	10%	-13	3.0	-0.1%	?	0%
COc1cc(C(=O)NC(=S)Nc2ccc(Cl)c(C(=O)O)c2)cc(OC)c1OC	0	-9%	5	0.4	1.3%	?	-12%
CCCSc1nsc(NC(=O)C(c2ccccc2)c2ccccc2)n1	4	4%	-3	1.2	-0.8%	2%	-7%
COc1ccccc1OCc1nnc(SCC(=O)Nc2ccc(C)cc2)n1C	2	14%	19	-1.8	0.2%	7%	-7%
CC(C)C(=O)Nc1ccc2c3c(cccc13)CC2	2	13%	-26	3.6	78%	-24%	1%
Cc1ccc2nc3c(cc(C#N)c(=O)n3CC3CCCO3)c(=O)n2c1 (centres undefined)	.	3%	1	?	.	.	.
c1ccc(-c2nc3ccccn3c2NCc2ccc3c(c2)OCO3)cc1	-1	0%	-6	3.4	?	-1%	?
Cc1cc(NS(=O)(=O)c2ccc(NC(=S)NC(=O)c3ccccc3)cc2)no1	-2	-7%	0	-0.5	-1.5%	-6%	-13%
CC(Sc1nnc(C2CC2)n1-c1ccccc1)C(=O)N1CCCC1 (centres undefined)	0	.	8	.	.	2%[15.4 µM]	7%

(listing goes on)
SMILES	CtBP-E1A blk	Sfp PPTase inh	TRPV1 PAM	Menin-MLL FL inh	ClpP mod	gsp ag	gsp antag
COc1ccc2[nH]c3c(c2c1)CCN1C(=O)C(CC(=O)NCc2ccc(OC)c(OC)c2)C[C@H](C(=O)N2CCCCC2)[C@@]31CCc1ccccc1 (some centres undefined)	2	.	.	.	-2.9%	.	-13%
COc1ccc(S(=O)(=O)n2cnc3cc(C)c(C)cc32)cc1C	12	16%	-8	2.5	-0.3%	-68%[inhibitor]	-13%
Cc1cc2oc(=O)cc(CN3CCCCC3C)c2c(C)c1Cl (centres undefined)	2	-4%	5	-3.3	-0.2%	?	?
CC(C)c1ccc(C2CC(=O)N3CN(C)CSC3=C2C#N)cc1 (centres undefined)	2	4.5µM*	2	0.5	-1.8%	-53%[inhibitor]	6%
